S aureus helic = inhibitors of S. aureus replicative helicase, primary screen, biochemical, fluorescence unwinding readout | purified S. aureus helicase, fluorescence unwinding assay; about half of the hits fall short of the stated cut | actives 0.05% (n = 120,000) | inhibition, %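 (tested at about 80 µM)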;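 active = both duplicates at 50% or more, or one of them with a favoured structure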;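 also: 0% = mean of negative control wells and 100% = mean of positive control wells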
MgrA-DNA mod = S. aureus MgrA activity modulators, primary screen, biochemical, S. aureus Newman, fluorescence polarization | MgrA-DNA binding | inhibition, %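 (about 10 µg/mL by stock and volumes)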 | actives 0.13% (n = 84,000) | AID 602314, 2012;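 active = above 50% in either of two replicates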;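 also: 0% = protein plus DNA without compound and 100% = DNA alone without protein; higher means less MgrA bound to DNA so lower polarization; one replicate is shown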
* hit, by the source's call; . = not tested or not shown. Some of the compounds tested; count on the stated rates, not on these rows.

SMILES	S aureus helic	MgrA-DNA mod
S=C(Nc1ccccc1Cl)N1CCCCC1	4	0.7
CC1(C)C2CC=C(COCC(O)CNCC3COc4ccccc4O3)C1C2 (stereo not drawn)	-29	.
CSc1nc(-c2ccccc2)nc2c1CCCC2	7	0.0
CSc1nn(-c2ccccc2)cc1C(=O)Nc1ccc(Cl)cc1	.	0.1
O=C(O)C1C2CCC(O2)C1C(=O)N1CCN(c2ccccc2)CC1 (stereo not drawn)	8	.
Clc1ccc(Sc2ncnc3ccsc23)cc1	.	0.6
O=C(NN1CC(=O)N(Cc2ccco2)C1=O)C(c1ccccc1)c1ccccc1	11	-0.9
CC(C)(C)c1ccc(S(=O)(=O)N2CCC(O)(c3ccc(Cl)cc3)CC2)cc1	.	0.1
N#CCC(=O)Nc1ccco1	-13	-9.1
Cc1ccccc1N1C(=O)C(Oc2ccc(Cl)cc2)C1CNCCc1ccccc1 (stereo not drawn)	7	-6.8
COCCn1c(SC)nc2c(c1=O)SCC2	15	.
CCC(C)(C(=O)NC1CCCCC1)N(Cc1ccco1)C(=O)Cc1cccs1 (stereo not drawn)	-2	.
Cn1c(SCC(=O)N2c3ccccc3Sc3ccccc32)nnc1-c1ccco1	-4	1.8
CCOC(=O)N1CCN(C(=O)c2ccc(N(Cc3ccccc3)S(C)(=O)=O)cc2)CC1	12	-1.4
CCOC(=O)Cn1cnc2c(nnn2Cc2ccccc2F)c1=O	8	.
COc1ccc2oc(=O)c(-c3nc4ccccc4[nH]3)cc2c1	6	.
COC(=O)C1=C(N)OC2=C(C(=O)CC(C)(C)C2)C1c1ccc(C(=O)OC)cc1 (stereo not drawn)	6	-1.5
CC(C)(C)NC(=S)N/N=C1/CCCc2occc21	8	.
S=C(c1ccc(N2CCCC2)c(Br)c1)N1CCOCC1	8	21
CC1CCCCN1c1ncccc1C(=O)N1CCCC1 (stereo not drawn)	14	4.0
C=CCOC(=O)CCN1C(=O)/C(=C/c2ccccc2)SC1=S	-13	.
Cc1[nH][nH]c(=O)c1C=Nc1ccc(O)c(C(=O)O)c1	0	4.2
CCCSc1nnc(-c2cccc(S(=O)(=O)N(C)C)c2)n1-c1cccc(OC)c1	-6	.
CC(=O)Nc1ccc(NC(=O)CSc2ncnc3ccccc23)cc1	-18	.
O=C(O)c1ccc2ncsc2c1	-21	12
CCOCCn1ccc2c(OCC(N)=O)cccc2c1=O	5	.
O=C1CC(c2ccco2)CC(O)=C1C=NCCN1CCN(C(=O)Nc2ccc(Cl)cc2)CC1 (stereo not drawn)	12	-0.2
O=C(CCCN1C(=O)c2ccccc2C1=O)Nc1nccs1	6	.
CCOc1ccc(S(=O)(=O)N/N=C(\C)c2ccc3c(c2)OCO3)cc1	8	.
CC(=O)N(C)c1ccc(Cl)cc1Cl	.	0.5
N#Cc1c(NC(=O)c2ccc3ncsc3c2)sc2c1CCC2	-10	.
Cc1cccc(N2CC(C(=O)OCn3nnc4ccccc4c3=O)CC2=O)c1C (stereo not drawn)	-10	.
Cn1cccc1CC(=O)N1N=CCC1(O)C(F)(F)F (stereo not drawn)	4	.
COc1ccc(CCNC(=O)c2nc3ccccc3c(=O)[nH]2)cc1OC	.	0.6
CCC(Sc1nc2sc(C(=O)OC)c(C)c2c(=O)n1N)C(=O)NCC1CCCO1 (stereo not drawn)	6	.
Cc1ccc(C2=N/C(=C\c3ccc(-c4cccc([N+](=O)[O-])c4)o3)C(=O)O2)cc1[N+](=O)[O-]	.	-0.5
COc1ccc(NC(=O)c2cc(NC(=O)C3CCCCC3C(=O)O)ccc2N2CCOCC2)cc1 (stereo not drawn)	4	3.6
Cn1ncc(C(N)=O)c1[N+](=O)[O-]	.	-1.6
Cc1c(C(=O)c2ccccc2)oc2ccc3ccccc3c12	.	-1.4
CCOC(=O)c1csc(NC(=O)C(C)(C)C)n1	-1	.

Copied from the list:
CCC(Sc1nc2sc(C(=O)OC)c(C)c2c(=O)n1N)C(=O)NCC1CCCO1 (stereo not drawn) | S aureus helic = 6
N#Cc1c(NC(=O)c2ccc3ncsc3c2)sc2c1CCC2 | S aureus helic = -10

(next part)
SMILES	S aureus helic	MgrA-DNA mod
Cc1cnc(NC(=O)CCCSc2ccccc2)s1	-9	.
C=CCNc1ccc(C(=O)O)cc1	6	-1.9
c1ccc(NCc2cccnc2)cc1	5	-0.7
O=C1CSC(=NC2CC2)N1Cc1cccs1	.	1.1
CN=C1S/C(=C\c2ccc(Cl)cc2)C(=O)N1C	7	.
CCOC(=O)c1c(NC(=O)c2ccc(C)c([N+](=O)[O-])c2)sc(C(=O)Nc2ccccc2F)c1C	.	-0.2
Cc1cc(/C=C(/C#N)C(=O)NC(C)C)c(C)n1-c1ccc2ccccc2c1	8	0.9
O=c1sc(-c2ccccc2)nc(O)c1Cc1ccccc1	.	1.9
Cc1ccc(C(=O)NCC2OCCc3ccccc32)cc1 (stereo not drawn)	12	-0.4
CCCCNC(=O)Cn1nc(Cc2ccncc2)c2ccccc2c1=O	16	.

21 compounds out of the list, arranged by formula weight, largest number first:
SMILES	S aureus helic	MgrA-DNA mod
CCOC(=O)c1c(NC(=O)c2ccc(C)c([N+](=O)[O-])c2)sc(C(=O)Nc2ccccc2F)c1C	.	-0.2
COc1ccc(NC(=O)c2cc(NC(=O)C3CCCCC3C(=O)O)ccc2N2CCOCC2)cc1 (stereo not drawn)	4	3.6
O=C1CC(c2ccco2)CC(O)=C1C=NCCN1CCN(C(=O)Nc2ccc(Cl)cc2)CC1 (stereo not drawn)	12	-0.2
CCC(Sc1nc2sc(C(=O)OC)c(C)c2c(=O)n1N)C(=O)NCC1CCCO1 (stereo not drawn)	6	.
Cc1cccc(N2CC(C(=O)OCn3nnc4ccccc4c3=O)CC2=O)c1C (stereo not drawn)	-10	.
CCOc1ccc(S(=O)(=O)N/N=C(\C)c2ccc3c(c2)OCO3)cc1	8	.
Cc1cc(/C=C(/C#N)C(=O)NC(C)C)c(C)n1-c1ccc2ccccc2c1	8	0.9
COc1ccc(CCNC(=O)c2nc3ccccc3c(=O)[nH]2)cc1OC	.	0.6
N#Cc1c(NC(=O)c2ccc3ncsc3c2)sc2c1CCC2	-10	.
O=C(CCCN1C(=O)c2ccccc2C1=O)Nc1nccs1	6	.
O=c1sc(-c2ccccc2)nc(O)c1Cc1ccccc1	.	1.9
Cc1cnc(NC(=O)CCCSc2ccccc2)s1	-9	.
Cc1c(C(=O)c2ccccc2)oc2ccc3ccccc3c12	.	-1.4
Cc1ccc(C(=O)NCC2OCCc3ccccc32)cc1 (stereo not drawn)	12	-0.4
CN=C1S/C(=C\c2ccc(Cl)cc2)C(=O)N1C	7	.
CCOC(=O)c1csc(NC(=O)C(C)(C)C)n1	-1	.
O=C1CSC(=NC2CC2)N1Cc1cccs1	.	1.1
CC(=O)N(C)c1ccc(Cl)cc1Cl	.	0.5
c1ccc(NCc2cccnc2)cc1	5	-0.7
C=CCNc1ccc(C(=O)O)cc1	6	-1.9
Cn1ncc(C(N)=O)c1[N+](=O)[O-]	.	-1.6

Continuation.
SMILES	S aureus helic	MgrA-DNA mod
O=C(CSc1nncn1-c1ccccc1)NC1CC1	4	.
Cc1ccsc1CNC(C)(C)CO	-3	.
CCOc1ccc(/C=N/n2nnnc2N)cc1OCC	4	-2.9
C=CCn1c(SCC(=O)Nc2ccc(S(N)(=O)=O)cc2)nnc1-c1ccco1	0	-1.9
CC(C)c1ccccc1NC(=O)CSc1nnc(-c2cccs2)n1CC1CCCO1 (stereo not drawn)	-8	.
O=C(Cc1ccc2c(c1)OCCO2)Nc1ccccc1N1CCOCC1	19	.
Oc1c(-c2ncc(-c3ccc(Cl)cc3)o2)sc2ncccc12	-15	.
N#CCC(=O)N(Cc1ccccc1)C(=O)Nc1cccc(F)c1	.	-0.8
CCCCCn1c(SCC(=O)N2CCC(C(=O)O)CC2)nc2ccccc21	2	.
Cc1ccc(-c2cn3cccnc3n2)cc1NC(=O)Nc1ccccc1	16	-1.9
Cn1cc(NC(=O)N2CCCCC2)c2ccccc2c1=O	-15	.
CN(C)Cc1c(O)ccc2c1O/C(=C\c1ccccc1)C2=O	-12	.
O=C(/C=C/c1cccs1)NC1CCN(Cc2ccccc2)CC1	-2	-2.0
COc1cc(C=Nc2ccccc2C(N)=O)ccc1O	.	-0.6
N#CCCN(N)C1=NS(=O)(=O)c2ccccc21	8	4.5
O=C1CCCC2=C1C(c1cccs1)n1ncnc1N2 (stereo not drawn)	8	.
COc1cnc(-c2ccccc2)nc1Oc1ccc(Cl)cc1C	.	-1.4
O=C(COC(=O)C12CC3CC(CC(O)(C3)C1)C2)c1ccc(Cl)cc1	7	.
O=C(CN(c1ccc(I)cc1)S(=O)(=O)c1ccccc1)Nc1cccnc1	6	-0.4
COc1ccc(CN2C(=O)C(F)(F)C2c2ccco2)cc1 (stereo not drawn)	1	1.1
O=C1CCCC(O)=C1C=Nc1ccc2c(c1)oc1ccccc12	6	-2.2
c1ccc(C2CCC(N3CCNCC3)CC2)cc1 (stereo not drawn)	9	-6.3
O=C(c1[nH]nc2c1CCc1ccccc1-2)N1CCCC1	6	.
O=c1ccc2ccc(OCc3ccccc3F)cc2o1	4	.
NCCCNC(=O)c1cc2ccccc2[nH]1	13	0.6
COC(=O)CSC(=S)N1CCCC1	18	.
COc1cc(-c2nc3ccccc3c(=O)n2NC(=O)c2cccc(Cl)c2)cc(OC)c1OC	.	-2.1
N#Cc1c(C(F)(F)F)cc(-c2cccs2)nc1OCC(=O)c1ccc(Cl)cc1	.	0.4
NS(=O)(=O)c1ccc(CCNC(=O)CN2CCCCC2)cc1	-9	.
CCCC(=O)Oc1ccc(C(=O)OC)cc1	6	-1.1
COc1ccc(N2C(=O)/C(=C\c3cc(Br)c(OC)c(OC)c3)C(=O)NC2=S)cc1	.	2.4
CCOC(=O)c1ccc(NC(=O)C2C3CCCCC32)cc1 (stereo not drawn)	14	-1.6
O=C(/C=C1/Sc2ccccc2N(Cc2ccc(F)cc2)C1=O)NCc1ccccc1	8	0.7
CCOc1ccccc1NC(=O)CSc1nc2c(oc3ccccc32)c(=O)n1CCOC	7	3.0
C=CCn1c(SCc2nnc(-c3ccccc3)o2)nnc1C(O)c1ccccc1 (stereo not drawn)	9	0.2
CC(C)(C)c1ccc(Oc2c([N+](=O)[O-])cc(C(F)(F)F)cc2[N+](=O)[O-])cc1	.	-0.7
CC(C)n1nnc2cc(C(=O)Nc3ccc(Cl)cc3)ccc21	.	-2.8
CN(C)C(=O)c1cn(-c2ccccc2)nc1-c1cccnc1	-8	-2.8
CCOC(=O)N1CCC(NCCNC(=O)c2ccccc2Cl)CC1	-5	-4.2
CCN(Cc1ccccc1)C(=O)CSc1nc2ncccc2[nH]1	1	0.6
COc1ccc(C2C(C(=O)N(C)c3ccc(C(C)C)cc3)c3ccccc3C(=O)N2C)cc1 (stereo not drawn)	3	1.2
Cc1cc(C(=O)O)oc(=O)c1	.	1.1
C#CCNS(=O)(=O)c1ccc(C#N)cc1	.	-0.4
CCOC(=O)Nc1cccc(C(=O)O)c1	4	-1.1
CCOC(=O)c1c(SC)n[nH]c1N	-35	.
CC(=O)NCc1ccc(-c2csc(CC(=O)Nc3ccc(C)cc3C)n2)o1	10	.
C/C(=N\NC(=O)C1CC1)c1ccc(OC(F)F)cc1OC(F)F	7	.
COc1ccc(Nc2cc(C(=O)NCc3ccco3)c3ccccc3n2)cc1	9	-0.8
Cc1ccc(-c2nn(-c3ccccc3)cc2/C=C/C(=O)OCC(=O)Nc2ccc3[nH]c(=O)[nH]c3c2)o1	-7	.
COC(=O)c1cc(S(=O)(=O)NC2CCN(Cc3ccccc3)CC2)c[nH]1	-34	.
Continuation:
SMILES	S aureus helic	MgrA-DNA mod
CCc1ccc(CNCC2CCCO2)cc1 (stereo not drawn)	15	-2.2
C=CCN1C(=O)C(C(=O)O)C(=O)c2ccccc21 (stereo not drawn)	6	-2.8
Cc1c(C(=O)NCCCN2CCOCC2)oc2ccc3c(c12)C(=O)CC1(CCCCC1)O3	28	.
CC(C)(C)Cc1nc2ccccc2[nH]1	5	.
O=C(NCCCN1CCN(CCCNC(=O)c2ccc(F)cc2)CC1)c1ccc(F)cc1	33	.
Cc1nn(CCC#N)c2c1P(=O)(c1ccccc1)/C(=C1\N(C)c3ccccc3C1(C)C)C=N2 (stereo not drawn)	3	.
O=C1c2cccc3cc([N+](=O)[O-])cc(c23)C(=O)N1Cc1ccccc1	.	-1.7
O=S(=O)(CS(=O)(=O)c1ccc(Cl)cc1)c1ccc(Cl)cc1	.	0.9
O=c1c2ccccc2[nH]c(=S)n1Nc1ccccc1	5	-0.3
O=C(c1c[nH]c2ccc(S(=O)(=O)Nc3ccccc3F)cc2c1=O)N1CCCC1	6	.
CC(=Nc1cccc(N2CCCC2=O)c1)C1=C(O)CC2(CCCCC2)CC1=O	-3	.
CC(=O)N=C1SC2CS(=O)(=O)CC2N1Cc1ccccc1 (stereo not drawn)	-1	-1.3
Cc1ccc(CCNC(=O)C2CCCN(S(=O)(=O)c3cccs3)C2)cc1 (stereo not drawn)	7	.
Cc1ccc(C)c(CN(C2=NC3CS(=O)(=O)CC3S2)c2cccc(Cl)c2)c1 (stereo not drawn)	5	0.3
COc1cccc(OC)c1C(=O)N=c1sc2ccccc2n1C	12	.
COc1ccc(C2OC(=O)C(C)=C(O)C2(C)C)cc1OC (stereo not drawn)	7	1.8
C=CCNC(=O)C1CC1(c1ccccc1)c1ccccc1 (stereo not drawn)	7	-1.6
CC(C)=CC(=O)Nc1nnc(Cc2ccccc2)s1	9	-0.3
CCCNC(=O)C1CCCN(S(=O)(=O)N2CCC3(CC2)OCCO3)C1 (stereo not drawn)	6	1.1
O=C(/C=C/c1ccco1)NCCC1=CCCCC1	14	.
COc1ccc(/C=N/N=C2\NC(=O)C(CC(=O)Nc3ccccc3)S2)cc1 (stereo not drawn)	6	.
COC(=O)/C(=C(/O)CSc1nnnn1C)c1nc2ccccc2[nH]1	-7	.
S=C(NCc1ccccc1)N1CCN(Cc2ccc3c(c2)OCO3)CC1	1	-0.8
CCSc1nnc(NC(=O)c2ccc(=O)n(C)n2)s1	-2	.
NNC(=O)CSc1ccccc1F	-2	.
CCC1=C(C(=O)OC)C(c2ccc(Cl)cc2)n2ncnc2N1 (stereo not drawn)	4	.
CC12CC3(C)CC(O)(C1)CC(C(=O)c1ccccc1)(C2)C3	-15	-1.3
